H5N1 CPE: MDCK cell protection from H5N1 avian flu; 96,000 compounds, 0.07% hits; inhibition, % at 50 µM; cytopathic effect, luminescence, 72 h; stronger effect = higher value; no value below 0 was filed and about half of the inactive calls have no number; reference of the scale not given here; in the data active = inhibition above about 25%
* = called active by the depositor; i = inactive. Not all compounds are listed (hit frequency here may not be typical).

Start of the data: the first 16 entries (preview)
SMILES	H5N1 CPE
COc1ccc(-n2c(Cc3cccn3C)nnc2SCC(=O)Nc2ccccc2F)cc1	0.7
Cc1cc(NC(=O)c2ccco2)ncc1NC(=O)CCc1ccccc1	i
O=C(COC(=O)C1CC(=O)N(c2ccc3c(c2)OCCO3)C1)NC1CCCc2ccccc21 (configuration not stated)	0.2
O=C(CSc1cn(Cc2ccccc2)c2ccccc12)N1CCOCC1	3.9
CC(=O)Nc1coc2ccc(Br)cc12	i
COc1ccccc1-c1noc(CCC(=O)Nc2cccc(C)c2)n1	i
CN(C)c1nc(Nc2ccccc2)nc(N(C)C)n1	0.8
CC(=O)C(Sc1nn(C)c(=S)s1)C(=O)Nc1ccccc1 (configuration not stated)	i
O=C(O)CN1CCN(Cc2ccc(F)cc2Cl)C1=O	i
Cn1ncc2c(N3CCN(c4ccccc4F)CC3)ncnc21	0.1
COc1ccc(OCCSc2nc3ccccc3n2CC(=O)O)cc1	1.2
CC(C)c1ccc(NC(=O)c2cccnc2)cc1	0.1
COC(CNC(=O)c1ccc(Cn2c(=S)[nH]c3cc4c(cc3c2=O)OCO4)cc1)OC	0.8
N#Cc1c(-c2ccco2)cc(C2CC2)nc1N	3.1
COCCCNC(=O)c1ccc(N2CCOCC2)c(NS(=O)(=O)c2ccc(OC)cc2)c1	1.7
Cc1ccc(-n2c(SCc3nnc4n3CCC4)nnc2-c2ccccc2)cc1	0.7

The listing (from the top)
SMILES	H5N1 CPE
COc1ccc(-n2c(Cc3cccn3C)nnc2SCC(=O)Nc2ccccc2F)cc1	0.7
Cc1cc(NC(=O)c2ccco2)ncc1NC(=O)CCc1ccccc1	i
O=C(COC(=O)C1CC(=O)N(c2ccc3c(c2)OCCO3)C1)NC1CCCc2ccccc21 (configuration not stated)	0.2
O=C(CSc1cn(Cc2ccccc2)c2ccccc12)N1CCOCC1	3.9
CC(=O)Nc1coc2ccc(Br)cc12	i
COc1ccccc1-c1noc(CCC(=O)Nc2cccc(C)c2)n1	i
CN(C)c1nc(Nc2ccccc2)nc(N(C)C)n1	0.8
CC(=O)C(Sc1nn(C)c(=S)s1)C(=O)Nc1ccccc1 (configuration not stated)	i
O=C(O)CN1CCN(Cc2ccc(F)cc2Cl)C1=O	i
Cn1ncc2c(N3CCN(c4ccccc4F)CC3)ncnc21	0.1
COc1ccc(OCCSc2nc3ccccc3n2CC(=O)O)cc1	1.2
CC(C)c1ccc(NC(=O)c2cccnc2)cc1	0.1
COC(CNC(=O)c1ccc(Cn2c(=S)[nH]c3cc4c(cc3c2=O)OCO4)cc1)OC	0.8
N#Cc1c(-c2ccco2)cc(C2CC2)nc1N	3.1
COCCCNC(=O)c1ccc(N2CCOCC2)c(NS(=O)(=O)c2ccc(OC)cc2)c1	1.7
Cc1ccc(-n2c(SCc3nnc4n3CCC4)nnc2-c2ccccc2)cc1	0.7
Cc1cc(N2CCOCC2)ccc1/C=C1\SC(=O)N(C(C)C)C1=O	i
Cc1cc(Nc2ccccc2)n(CCOC(=O)COc2ccccc2)n1	0.1
O=C(O)CN(c1ccc(F)cc1)S(=O)(=O)c1ccc2c(c1)OCCO2	0.5
Cn1c(C(=O)NCCc2ccsc2)cc2c(=O)n(C)c3ccccc3c21	0.1
COc1cccc(NC(=O)CC2COc3ccccc3O2)c1 (configuration not stated)	i
CCCCc1nc(NCCN)c(C#N)c2c1CSC(C)(C)C2	i
Cc1ccc(/C=N/n2nnnc2N)cc1[N+](=O)[O-]	1.4
CCc1ccccc1NC(=O)CC1S/C(=N\c2nccs2)N(CC)C1=O (configuration not stated)	i
O=C(CN(Cc1ccc(F)cc1)C(=O)CCC(=O)Nc1ccccn1)NCc1ccco1	3.0

New compounds follow.
SMILES	H5N1 CPE
CC(=O)NC(CCS(C)(=O)=O)C(=O)Nc1ccc(Cl)c(Cl)c1 (configuration not stated)	0.1
COC(=O)c1ccc(-c2nc(O)c3cnccn23)cc1	0.5
O=[N+]([O-])c1ccc(O)c(/C=N/Nc2ccc(Cl)nn2)c1	i
CC(C)C(=O)Nc1cccc(NC(=O)c2cc3ccccc3o2)c1	i
CC(=O)Nc1ccccc1OCC(=O)c1ccc2c(c1)OCO2	i
CC(NC(=O)c1noc2c1CCCC2)c1ccccc1 (configuration not stated)	0.3
COc1ccc(CC(=O)N2CC(C)CC(C)C2)cc1 (configuration not stated)	0.2
Cc1cccc(C(=O)NN2C(=O)C3C(c4ccccc4)C=CC(c4ccccc4)C3C2=O)c1 (configuration not stated)	i
CCOc1cc(C2C(C(=O)O)c3cc(OCC)c(OCC)cc3C(=O)N2C)ccc1O (configuration not stated)	1.3
CCCCN(C(=O)NC(=O)Nc1c(C)cc(C)cc1C)S(C)(=O)=O	i
O=C(O)c1cc(S(=O)(=O)N2CCOCC2)ccc1N1CCOCC1	0.3
CC(=O)N1CCN=C1SCc1ccccc1F	3.5
CC(=O)/C=C/c1ccc2ccccc2n1	1.4
CCOC(=O)c1c(N)c(C#N)nn1-c1ccccc1C(=O)OC	i
Cn1c(=O)c2c(nc(NCC3CCCO3)n2C)n(C)c1=O (configuration not stated)	3.0
O=C(CCC(=O)N(c1cccc(F)c1)C(C(=O)NC1CCCC1)c1ccncc1)Nc1cccnc1 (configuration not stated)	i
Cc1cc(C)c(OCC(=O)N/N=C/c2ccco2)c(C)c1	0.9
CC(=O)Nc1ccc(C(=O)OC2CCCCC2=O)cc1 (configuration not stated)	i
COC(=O)c1cc2n(n1)CCN(Cc1ccc(OC)cc1)C2=O	0.2
CCOC(=O)c1sc(NC(=O)c2ccccc2OC)nc1C	i
N=C1C(c2nc3ccccc3c(=O)[nH]2)=C(O)CN1CCc1ccccc1	0.1
COc1ccc(C)cc1NC(=O)CSc1nnc(COc2ccccc2)n1Cc1ccco1	9.0
c1cc2c(c(NCc3ccncc3)c1)CCCC2	i
COC(=O)C1=C(N)Oc2c(oc(CO)cc2=O)C1c1ccccc1F (configuration not stated)	0.8
O=C(Nc1ccccc1C(F)(F)F)NC1CCCCC1	i

More structures:
SMILES	H5N1 CPE
COc1ccc(-n2c(SC3CCOC3=O)nc3ccccc3c2=O)cc1OC (configuration not stated)	0.3
Cc1ccc(C(=O)NNC(=O)C2CCN(Cc3ccccc3)CC2)cc1	i
O=C(CCN1C(=O)C2(OCCO2)c2ccccc21)c1ccccc1	i
Cc1ccc(S(=O)(=O)c2c(C)cc(-c3ccccc3)[nH]c2=O)cc1	i
O=C1c2ccccc2C(=O)N1CSc1nnc2c3ccccc3n(CCc3ccccc3)c2n1	1.7
CCC(CC)C(=O)OCC(=O)NC12CC3CC(CC(C3)C1)C2	3.4
CCCCNC(=O)CC1N=C2c3ccccc3N=C(SCC(=O)Nc3cccc(OC)c3)N2C1=O (configuration not stated)	i
CCC(Sc1nc2n[nH]c(C)c2c(=N)n1-c1cccc(Cl)c1C)C(=O)N(CC)CC (configuration not stated)	i
CC1=CC(C)(C)N2C(=O)C3(C(C#N)=C(N)OC4=C3C(=O)CCC4)c3c(C)c(C)cc1c32 (configuration not stated)	i
Cc1sc(NC(=O)CN(C)C2CCCCC2)nc1-c1ccc2c(c1)CCN2S(=O)(=O)c1ccccc1	i
O=CN1CCN(C(C(=O)NC2CCCC2)c2ccc(Cl)cc2)CC1 (configuration not stated)	0.7
COc1ccc(OCC(O)CON2C(=O)c3ccccc3C2=O)cc1 (configuration not stated)	0.3
CS(=O)(=O)N(CC(O)Cn1c2ccccc2c2ccccc21)c1ccccc1 (configuration not stated)	i
COc1cccc(-c2nnc(N(C)C(=O)c3ccno3)s2)c1	i
C=CCn1c(-c2csc(-c3ccc(Cl)cc3)n2)n[nH]c1=S	i
Cc1cc(C)cc(NC(=O)c2ccc(CSc3nnc(C)s3)cc2)c1	0.2
O=C(NCc1ccco1)C1CCCN(S(=O)(=O)Cc2ccccc2)C1 (configuration not stated)	i
COc1cc(OC)cc(-c2n[nH]c(=S)n2-c2cc(OC)ccc2OC)c1	0.6
CN(C)c1ccc(P(=S)(N(C)C)N(C)C)cc1	i
CC(C)(CS(=O)(=O)[O-])NC(=O)CC[N+](C)(C)CCO	0.4
N#CCCN(CCC#N)C(=O)c1ccc2c(c1)OCO2	0.2
CC(=O)NCc1cc(-c2nn(C)c(=O)c3ccccc23)ccc1C	0.6
Cc1cc(S(=O)(=O)Nc2nc(CN3CCOCC3)nc3sc4c(c23)CCCC4)ccc1F	i
Cc1ccc(CN2CC(C(=O)Nc3ccc4c(C)cc(=O)oc4c3)CC2=O)cc1 (configuration not stated)	0.1
COc1ccc(NC(=O)CCS(=O)(=O)c2ccc3c(c2)CCCN3C(C)=O)cc1Cl	2.7

(cont.)
SMILES	H5N1 CPE
CCN(CC)C(=O)CSc1nnc(-n2nc(C)cc2C)c2ccccc12	i
COc1ccc(CCNC(=O)C2CCCN(C(=O)N(C)C)C2)c(OC)c1 (configuration not stated)	i
O=C(NCCC1=CCCCC1)C1CC(=O)N(C2CCCCC2)C1 (configuration not stated)	i
COC(=O)c1cc2c(s1)CS(=O)C2 (configuration not stated)	i
Oc1ccc(-c2n[nH]c(=S)n2Cc2ccco2)cc1	0.4
COC(=O)c1ccc(-n2nnnc2SCc2ccccc2OC)cc1	1.2
Cc1ccc2cc3cc(C(=O)N4CCCCC4C)oc3nc2c1 (configuration not stated)	3.0
CN1C(=O)c2cccc(NCCCN3C(=O)c4ccccc4C3=O)c2C1=O	1.2
Cc1cc(C)c(C#N)c(SCSCc2ccccc2)n1	i
Cc1ccc(N(Cc2ccc(C(=O)Nc3ccccc3C(=O)NCc3ccco3)cc2)S(C)(=O)=O)cc1C	i
COc1cccc(/C=N/NC(=O)CCc2ccccc2)c1	6.6
Cc1nc(C)c(C(=O)Nc2ccccc2)s1	i
O=C(Nc1ccccc1C(=O)N1CCOCC1)c1cccnc1	0.0
CCCC(=O)Nc1ccc(C(=O)NNC(=O)c2cccs2)cc1	i
Cc1cc(C)n(C(=O)c2ccc(C)c(S(=O)(=O)N3CCOCC3)c2)n1	i
O=c1oc2ccccc2c(NCc2cccc(F)c2)c1[N+](=O)[O-]	0.5
Cc1noc(C)c1S(=O)(=O)N(CC(=O)Nc1ccc2c(c1)OCCO2)c1ccc(C(C)C)cc1	i
CCOC(=O)N1CCN(C(=O)c2ccc3c(=O)n(Cc4ccc(OC)cc4)c(=S)[nH]c3c2)CC1	0.6
Cc1cc2cccc(C)c2nc1SCC(=O)N(C)c1nc(-c2ccccc2)cs1	i
O=C(CCSc1nccn1Cc1ccccc1)N1CCOCC1	i
O=C(Nc1c(C(=O)NCc2ccco2)cnn1-c1ccccc1)c1ccc(F)cc1	5.2
Cc1cc(C)c(S(=O)(=O)NCc2ccncc2)c(C)c1	1.2
CCC/C(=C1/C(=O)CC(C)(C)C(C(=O)OC)C1=O)N1CCCC1 (configuration not stated)	i
Cc1cc(C)nc(N2CCC(C(=O)O)CC2)n1	0.8
COc1cccc(CNC(=O)Cn2cccc2)c1	0.4

Additional entries.
SMILES	H5N1 CPE
CCOC(=O)c1c(NC(=O)CSc2nnc(-c3ccco3)o2)sc(C)c1C	i
CC(C)N(Cc1cc2ccccc2[nH]c1=O)C(=O)c1cccnc1	2.0
COc1ccc(N(CC(=O)Nc2cc(C(=O)O)ccc2C)S(=O)(=O)c2c(C)noc2C)cc1	0.5
NC(=S)NNc1cccc(Cl)c1	i
Cc1ccc(-c2nn3c(C)nnc3s2)cc1NC(=O)C(C)C	0.7
CC(C)C(=O)NCCCc1ccccc1	0.1
O=C(NCCN1CCN(c2ccccc2)CC1)c1ccc(NC(=O)C2CCCO2)cc1 (configuration not stated)	1.1
CCN(CC)CCN(C(=O)Cn1nnc(-c2ccc(OC)c(OC)c2)n1)C(C(=O)NC1CCCC1)c1ccc(F)cc1 (configuration not stated)	i
Cc1ccc2[nH]c(=O)c(-c3nc4c(C)cccn4c3NCc3ccco3)cc2c1	0.6
CCOC(=O)Cc1csc(NC(=S)NC(=O)c2ccc(F)cc2)n1	i
O=C(NCCN1C(=O)C2C3C=CC(C3)C2C1=O)NCc1ccccc1 (configuration not stated)	1.4
Cn1c(=O)c2c(ncn2Cc2cc(-c3ccccc3)no2)n(C)c1=O	5.4
CCc1cccc2c(C(=O)Cn3nnc(-c4ccc(OC)c(OC)c4)n3)c[nH]c12	i
O=C(CN1C(=O)COc2ccccc21)NCCCN1CCc2ccccc2C1	1.5
Cc1nnc2n(-c3ccccc3)c(=O)c3c4c(sc3n12)COC(C(C)C)C4 (configuration not stated)	1.3
O=C(O)CCC(=O)Nc1ccc(Cc2ccc(NC(=O)CCC(=O)O)c(O)c2)cc1O	i
Cc1ccc(-c2nn[nH]n2)cc1	0.2
O=S(=O)(c1ccc(Br)s1)n1cccn1	i
COC(=O)CON1C(=O)c2ccccc2C1=O	0.6
COc1cccc(-c2cc(C(=O)Nc3ccc4c(c3)OCCO4)c3ccccc3n2)c1	i
Cc1occc1-c1nnc(SCC(=O)Nc2ccccc2-c2ccccc2)n1C	i
Cc1cc(C)n2nc3nc(N4CCCCC4)nc(-c4ccco4)c3c2n1	i
CCC(C)(C)n1nnnc1C(c1cc2ccc(OC)cc2[nH]c1=O)N1CCCCC1 (configuration not stated)	i
CC1(C)NC(=O)N(CC(O)CN2C(=O)NC(C)(C)C2=O)C1=O	0.6
O=C1c2oc3ccc(Cl)cc3c(=O)c2C(c2cccc(Br)c2)N1CCO (configuration not stated)	1.2

Next section
SMILES	H5N1 CPE
COCCn1c(SCc2ccc(C(=O)OC)o2)nnc1-c1c[nH]c2ccccc12	1.3
NS(=O)(=O)c1ccc(NC(=O)COC(=O)CSc2n[nH]c(-c3ccccc3)n2)cc1	0.3
O=C(C1CCCN1S(=O)(=O)c1ccc(Cl)c(Cl)c1)N1CCOCC1 (configuration not stated)	i
COc1ccc(C2C3C(=O)N(Cc4ccccc4)C(=O)C3ON2c2ccccc2)c(OC)c1OC (configuration not stated)	i
Cc1ccc(-c2noc(CCC(=O)NCCN3CCc4ccccc4C3)n2)cc1	1.2
Cn1c(=O)c2cc(S(=O)(=O)NCCC(=O)NCC3CCCO3)ccc2n(C)c1=O (configuration not stated)	1.1
COc1ccc(CNC(=O)CCOc2ccc(C(C)(C)C)cc2)cc1	i
CCCC1(C)SC(NC(C)=O)=NN1C(C)=O (configuration not stated)	0.4
